A1 apoptosis 2 – compounds inhibiting A1, read as caspase activation; AID 2465; caspase activation, % (test concentration not listed); MEF A1-2A-BIM cells, caspase-Glo luminescence, 3 h; percent of clofoctol response, DMSO zero; 24,000 tested, under 10 active; in the data active = caspase activation above about 5.9%;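 also: wells of about 30 µL received 50 nL stock; the first replicate is given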
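Material: A1-2A-BIM-expressing MEF cells. Buffer or medium: RPMI-1640 plus 10% FBS. Incubation: cells settled overnight, compound exposure 3 h at 37 °C, 5% CO2. Signal: Caspase-Glo 3/7 luminescence, 1 h at room temperature.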
Active calls of the source: *. A portion of the library; count on the stated rates, not on these rows.

SMILES	A1 apoptosis 2
C[C@@H]1CN([C@H](C)CO)C(=O)Cc2cc(NC(=O)CCN3CCOCC3)ccc2O[C@@H]1CN(C)S(=O)(=O)c1cccs1	0.8
C[C@@H]1CN([C@@H](C)CO)C(=O)c2cc(NC(=O)Cc3ccccc3)ccc2O[C@@H]1CN(C)CC1CC1	1.2
C[C@@H]1CN([C@H](C)CO)C(=O)Cc2cc(NC(=O)CCN3CCOCC3)ccc2O[C@H]1CN(C)S(=O)(=O)c1cccs1	0.2
CC(C)NC(=O)N(C)C[C@@H]1OCCCC[C@H](C)Oc2ccc(NC(=O)Nc3ccc(C(F)(F)F)cc3)cc2C(=O)N([C@@H](C)CO)C[C@@H]1C	-1.4
C[C@@H]1CN([C@@H](C)CO)C(=O)c2cc(NC(=O)Nc3ccc(F)cc3)ccc2O[C@@H](C)CCCCO[C@@H]1CN(C)C(=O)Cc1ccccc1	-0.8
Cc1noc(C)c1NC(=O)Nc1ccc2c(c1)C(=O)N([C@@H](C)CO)C[C@@H](C)[C@@H](CN(C)Cc1ccc(Cl)c(Cl)c1)O2	0.3
C[C@@H]1CN([C@H](C)CO)C(=O)Cc2cc(NC(=O)c3ccncc3)ccc2O[C@@H]1CN(C)S(=O)(=O)c1ccccc1	-1.0
C[C@H]1CN([C@@H](C)CO)C(=O)CCCn2cc(nn2)CO[C@H]1CN(C)Cc1ccccc1	-0.2
CCO[C@H]1OC(C(=O)NCc2ccccc2)=C[C@@H](C(C)(C)C)[C@@H]1CCCO	-0.1
C[C@H]1CN([C@@H](C)CO)C(=O)c2cccc(NC(=O)c3ccc(-c4nccs4)cc3)c2O[C@H]1CN(C)Cc1ccc(C(=O)O)cc1	-0.7
C[C@H]1CN([C@@H](C)CO)C(=O)Cc2cc(NS(C)(=O)=O)ccc2O[C@H]1CN(C)C(=O)Nc1ccc(C(F)(F)F)cc1	0.4
C[C@@H]1CCCCO[C@H](CN(C)S(=O)(=O)c2cccs2)[C@@H](C)CN([C@H](C)CO)C(=O)c2cc(NC(=O)C3CCCCC3)ccc2O1	-0.8
C[C@H]1CN([C@@H](C)CO)C(=O)c2cc(NC(=O)Cc3cn(C)c4ccccc34)ccc2O[C@@H]1CN(C)S(C)(=O)=O	-0.6
C[C@@H]1CN([C@H](C)CO)C(=O)Cc2cc(NC(=O)C3CCCCC3)ccc2O[C@@H]1CN(C)CC1CCCCC1	-1.0
C[C@@H]1CN([C@@H](C)CO)C(=O)c2cccc(NS(=O)(=O)c3cn(C)cn3)c2O[C@@H]1CN(C)S(=O)(=O)c1ccc(Cl)cc1	-0.4
C[C@@H]1CCCCO[C@@H](CN(C)CC2CCCCC2)[C@H](C)CN([C@H](C)CO)C(=O)c2cc(NC(=O)Nc3ccc4c(c3)OCO4)ccc2O1	0.7
C[C@H]1CCCCO[C@H](CN(C)Cc2ccc(C(F)(F)F)cc2)[C@@H](C)CN([C@@H](C)CO)C(=O)c2cc(NC(=O)c3ccccc3)ccc2O1	1.0
C[C@@H]1CCCCO[C@H](CN(C)C(=O)C2CCCCC2)[C@H](C)CN([C@H](C)CO)C(=O)c2cc(NS(=O)(=O)c3cn(C)cn3)ccc2O1	0.0
C[C@@H]1CN([C@H](C)CO)C(=O)CCCn2cc(nn2)CO[C@@H]1CN(C)C(=O)Nc1ccccc1F	-1.0
COc1ccc(NC(=O)N(C)C[C@@H]2OCCCC[C@H](C)Oc3ccc(NC(=O)c4ccncc4)cc3C(=O)N([C@H](C)CO)C[C@H]2C)cc1	-0.5

Next section; the last six above are carried over.
SMILES	A1 apoptosis 2
C[C@@H]1CN([C@@H](C)CO)C(=O)c2cccc(NS(=O)(=O)c3cn(C)cn3)c2O[C@@H]1CN(C)S(=O)(=O)c1ccc(Cl)cc1	-0.4
C[C@@H]1CCCCO[C@@H](CN(C)CC2CCCCC2)[C@H](C)CN([C@H](C)CO)C(=O)c2cc(NC(=O)Nc3ccc4c(c3)OCO4)ccc2O1	0.7
C[C@H]1CCCCO[C@H](CN(C)Cc2ccc(C(F)(F)F)cc2)[C@@H](C)CN([C@@H](C)CO)C(=O)c2cc(NC(=O)c3ccccc3)ccc2O1	1.0
C[C@@H]1CCCCO[C@H](CN(C)C(=O)C2CCCCC2)[C@H](C)CN([C@H](C)CO)C(=O)c2cc(NS(=O)(=O)c3cn(C)cn3)ccc2O1	0.0
C[C@@H]1CN([C@H](C)CO)C(=O)CCCn2cc(nn2)CO[C@@H]1CN(C)C(=O)Nc1ccccc1F	-1.0
COc1ccc(NC(=O)N(C)C[C@@H]2OCCCC[C@H](C)Oc3ccc(NC(=O)c4ccncc4)cc3C(=O)N([C@H](C)CO)C[C@H]2C)cc1	-0.5
COc1ccc(C#Cc2cnc3c(c2)C(=O)N([C@H](C)CO)C[C@H](C)[C@H](CN(C)C)O3)cc1OC	0.0
COc1ccc(S(=O)(=O)N(C)C[C@@H]2Oc3ccc(NC(=O)CCN4CCOCC4)cc3C(=O)N([C@@H](C)CO)C[C@H]2C)cc1	-0.2
C[C@@H]1CN([C@H](C)CO)C(=O)c2cccc(NS(=O)(=O)c3ccccc3)c2O[C@@H]1CN(C)C(=O)Nc1ccccc1	-0.6
C[C@H](CO)N1C[C@H](C)[C@@H](CN(C)C(=O)Nc2ccc(F)cc2)OCCCC[C@H](C)Oc2ccc(N(C)C)cc2C1=O	0.0
C[C@H](CO)N1C[C@H](C)[C@H](CN(C)C(=O)Nc2ccc3c(c2)OCO3)Oc2c(NC(=O)Nc3cccc4ccccc34)cccc2C1=O	-0.8
Cc1ccc(S(=O)(=O)Nc2cccc3c2O[C@H](CN(C)C(=O)Nc2ccccc2)[C@@H](C)CN([C@@H](C)CO)C3=O)cc1	0.5
C[C@@H]1CN([C@@H](C)CO)C(=O)c2cc(NC(=O)CCC(F)(F)F)ccc2O[C@H]1CN(C)C	1.3
CC(C)NC(=O)N(C)C[C@H]1Oc2ccc(NS(=O)(=O)c3cccs3)cc2CC(=O)N([C@@H](C)CO)C[C@H]1C	-0.4
COc1ccc(S(=O)(=O)Nc2ccc3c(c2)C(=O)N([C@H](C)CO)C[C@H](C)[C@@H](CN(C)S(=O)(=O)c2ccc(F)cc2)OCCCC[C@H](C)O3)cc1	0.4
Cc1ccc(S(=O)(=O)N(C)C[C@H]2Oc3ccc(NC(=O)Nc4ccc(F)cc4)cc3CC(=O)N([C@@H](C)CO)C[C@@H]2C)cc1	-1.1
C[C@H]1CN([C@@H](C)CO)C(=O)c2cc(NC(=O)NC3CCCCC3)ccc2O[C@H]1CN(C)C(=O)Nc1ccc2c(c1)OCO2	0.3
C[C@H]1CN([C@@H](C)CO)C(=O)Cc2cc(NC(=O)NC3CCCCC3)ccc2O[C@H]1CN(C)S(=O)(=O)c1cccs1	0.2
CC(C)NC(=O)N(C)C[C@H]1OCCCC[C@@H](C)Oc2ccc(NC(=O)CCC(F)(F)F)cc2C(=O)N([C@@H](C)CO)C[C@@H]1C	-0.3
C[C@@H]1CCCCO[C@@H](CN(C)Cc2ccncc2)[C@@H](C)CN([C@H](C)CO)C(=O)c2cc(NS(C)(=O)=O)ccc2O1	0.3
C[C@H](CO)N1C[C@H](C)[C@H](CN(C)Cc2ccc(Cl)c(Cl)c2)OCc2cnnn2CCCC1=O	-1.1
CNC[C@@H]1OCCCC[C@@H](C)Oc2ccc(NC(=O)c3ccncc3)cc2C(=O)N([C@H](C)CO)C[C@@H]1C	0.9
C[C@@H]1CN([C@H](C)CO)C(=O)c2cc(NC(=O)Nc3ccccc3)ccc2O[C@H]1CN(C)C(=O)Nc1cccc2ccccc12	0.7
C[C@@H]1CCCCO[C@@H](CN(C)C(=O)c2ccncc2)[C@@H](C)CN([C@@H](C)CO)C(=O)c2cc(NS(=O)(=O)c3ccc(Cl)cc3)ccc2O1	-0.2
COc1cc2c(cc1OC)CN(C(=O)[C@@H]1[C@H]3C(=O)O[C@H](c4ccccc4)[C@H](c4ccccc4)N3[C@H](c3ccccc3OCCO)[C@@]13C(=O)Nc1ccccc13)CC2	0.1
Cc1noc(C)c1S(=O)(=O)Nc1ccc2c(c1)C(=O)N([C@@H](C)CO)C[C@H](C)[C@@H](CN(C)C(=O)Nc1ccccc1)OCCCC[C@H](C)O2	0.1

Shown with each value named: entries from further up.
SMILES: COc1cc2c(cc1OC)CN(C(=O)[C@@H]1[C@H]3C(=O)O[C@H](c4ccccc4)[C@H](c4ccccc4)N3[C@H](c3ccccc3OCCO)[C@@]13C(=O)Nc1ccccc13)CC2
  A1 apoptosis 2: 0.1

SMILES: Cc1ccc(S(=O)(=O)Nc2cccc3c2O[C@H](CN(C)C(=O)Nc2ccccc2)[C@@H](C)CN([C@@H](C)CO)C3=O)cc1
  A1 apoptosis 2: 0.5

Next entries follow.
SMILES	A1 apoptosis 2
C[C@@H]1CN([C@@H](C)CO)C(=O)c2cccc(NC(=O)c3cnccn3)c2O[C@H]1CN(C)C(=O)Nc1cccc2ccccc12	-1.5
C[C@@H]1CN([C@@H](C)CO)C(=O)CCCn2nncc2CO[C@H]1CN(C)Cc1ccccc1	0.3
C[C@@H]1CN([C@H](C)CO)C(=O)Cc2cc(NS(=O)(=O)c3cccs3)ccc2O[C@H]1CN(C)Cc1ccccc1	-0.6
CC(C)NC(=O)Nc1cccc2c1O[C@H](CN(C)Cc1ccc(Oc3ccccc3)cc1)[C@H](C)CN([C@@H](C)CO)C2=O	-0.1
COc1ccc(NC(=O)Nc2cccc3c2O[C@H](CN(C)C(=O)Nc2ccc(C(F)(F)F)cc2)[C@H](C)CN([C@H](C)CO)C3=O)cc1	-0.5
C[C@H](CO)N1C[C@H](C)[C@H](CN(C)CC2CCCCC2)OCCCC[C@H](C)Oc2ccc(NC(=O)C3CCCCC3)cc2C1=O	0.9
C[C@@H]1CN([C@H](C)CO)C(=O)c2cccc(NC(=O)c3ccc(-c4nccs4)cc3)c2O[C@@H]1CN(C)Cc1ccc2c(c1)OCO2	0.4
COc1ccc(S(=O)(=O)Nc2cccc3c2O[C@H](CN(C)Cc2ccc(C(F)(F)F)cc2)[C@H](C)CN([C@H](C)CO)C3=O)cc1	0.0
C[C@@H]1CCCCO[C@@H](CN(C)C(=O)c2ccccc2)[C@H](C)CN([C@H](C)CO)C(=O)c2cc(NS(=O)(=O)c3cn(C)cn3)ccc2O1	0.0
C[C@@H]1CCCCO[C@H](CN(C)C(=O)Nc2ccc(F)cc2)[C@@H](C)CN([C@H](C)CO)C(=O)c2cc(NC(=O)Nc3ccc4c(c3)OCO4)ccc2O1	-1.2
CC(C)NC(=O)Nc1ccc2c(c1)C(=O)N([C@H](C)CO)C[C@@H](C)[C@@H](CN(C)Cc1ccc(C(F)(F)F)cc1)OCCCC[C@@H](C)O2	0.6
CCO[C@@H]1OC(C(=O)N2CCOCC2)=C[C@H](c2ccc(Br)cc2)[C@H]1CCCO	1.3
COc1ccc(NC(=O)Nc2ccc3c(c2)CC(=O)N([C@H](C)CO)C[C@H](C)[C@H](CN(C)S(=O)(=O)c2ccc(Cl)cc2)O3)cc1	0.3
C[C@@H]1CN([C@H](C)CO)C(=O)c2cc(NS(=O)(=O)c3ccccc3)ccc2O[C@@H]1CN(C)CC1CC1	-0.1
C[C@@H]1CCCCO[C@H](CN(C)CC2CCCCC2)[C@H](C)CN([C@H](C)CO)C(=O)c2cc(NC(=O)Nc3cccc4ccccc34)ccc2O1	0.4
C[C@@H]1CN([C@@H](C)CO)C(=O)c2cc(NC(=O)C3CCCCC3)ccc2O[C@H]1CN(C)CC1CCCCC1	-0.6
C[C@@H]1CCCCO[C@@H](CN(C)Cc2ccc3c(c2)OCO3)[C@H](C)CN([C@H](C)CO)C(=O)c2cc(NC(=O)Nc3ccccc3)ccc2O1	-0.1
COc1cc(Br)c(/C=N/NC(=O)c2ccccn2)cc1OC	-0.4
C[C@@H]1CCCCO[C@@H](CN(C)Cc2ccccc2)[C@@H](C)CN([C@@H](C)CO)C(=O)c2cc(NS(=O)(=O)c3ccc(F)cc3)ccc2O1	1.0
[N-]=[N+]=NCc1ccccc1C[C@]1(C(=O)NCC(O)CO)COC(c2ccc(OCCCO)cc2)=N1 (stereo partly drawn)	0.4
C[C@H]1CN([C@@H](C)CO)C(=O)CCCn2cc(nn2)CO[C@H]1CN(C)C(=O)Nc1ccc(N2CCCCC2)cc1	0.1
Cc1noc(C)c1S(=O)(=O)N(C)C[C@@H]1Oc2ccc(NC(=O)Nc3ccc(C(F)(F)F)cc3)cc2CC(=O)N([C@H](C)CO)C[C@@H]1C	-0.6
C[C@H](CO)N1C[C@H](C)[C@H](CN(C)Cc2ccncc2)Oc2ncc(C#CCC3CCCC3)cc2C1=O	-0.4
C[C@@H]1CN([C@H](C)CO)C(=O)CCCn2cc(nn2)CO[C@H]1CN(C)C(=O)Oc1ccccc1	-0.9
Cc1noc(C)c1NC(=O)Nc1ccc2c(c1)CC(=O)N([C@H](C)CO)C[C@@H](C)[C@H](CN(C)Cc1ccc(Oc3ccccc3)cc1)O2	0.8
C[C@H]1CN([C@@H](C)CO)C(=O)Cc2cc(NC(=O)C3CC3)ccc2O[C@@H]1CN(C)C(=O)Nc1cccc2ccccc12	0.3
Cc1noc(C)c1S(=O)(=O)Nc1cccc2c1O[C@@H](CN(C)Cc1ccc(C(=O)O)cc1)[C@@H](C)CN([C@H](C)CO)C2=O	0.2
C[C@H]1CN([C@@H](C)CO)C(=O)Cc2cc(NC(=O)C3CCCCC3)ccc2O[C@H]1CN(C)C(=O)Nc1ccccc1	0.0
C[C@H](CO)N1C[C@H](C)[C@@H](CN(C)S(=O)(=O)c2cn(C)cn2)Oc2c(cccc2N(C)C)C1=O	-0.6
C[C@H]1CN([C@@H](C)CO)C(=O)c2cccc(NC(=O)Nc3cccc4ccccc34)c2O[C@@H]1CN(C)S(=O)(=O)c1ccc(Cl)cc1	-0.1
C[C@H]1CN([C@@H](C)CO)C(=O)c2cc(NS(C)(=O)=O)ccc2O[C@H]1CN(C)CC1CC1	1.2
C[C@H]1CN([C@@H](C)CO)C(=O)c2cc(NC(=O)Nc3ccc(F)cc3)ccc2O[C@@H]1CN(C)C(=O)NC1CCCCC1	-2.8
